eIF4H inh – human eIF4H binding inhibitors, primary screen, translation initiation inhibitor project, biochemical, uHTS, fluorescence polarization. Eukaryotic translation initiation factor 4H (Homo sapiens), Q15056. eIF4H fluorescence polarization binding assay. inhibition, % at 35 µM. 290,000 tested, 0.94% active. AID 2012, 2009;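 active = 50% or more with normal probe brightness, or confirmed in later tests; inconclusive = above 50% with abnormal brightness, or retests that disagree; inactive = below 50% or failed in later tests; about a fifth of its hits are not listed in these tables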;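 note: calls also rest on retests at 20 µM and on dose response follow-up; 0% = protein and probe with vehicle and 100% = probe without protein; strong numbers were not always called active; many hits fall short of the cut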
Yeast UUG start – modulators of yeast start codon fidelity, primary screen, whole organism, S. cerevisiae, single point, plate reader | S. cerevisiae UUG-firefly luciferase reporter, luminescence/redox ratio | activity score, % at 18.7 µM | 350,000 tested, 0.13% active | AID 602363, 2012;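 active = replicate mean at a twofold rise or more, about +100% in these data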;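 note: firefly luciferase made from a UUG start codon reports start codon fidelity; reporter light over untreated wells divided by growth signal over untreated wells; some hits fall short of that in this replicate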
Rce1 inhib – yeast Rce1p protease inhibitors, primary screen, biochemical, fluorescence, cell-free homogeneous | yeast membranes, quenched prenylated peptide cleavage fluorescence | 290,000 tested, 0.27% active | CAAX prenyl protease 2 (Saccharomyces cerevisiae (strain ATCC 204508 / S288c)), Q03530 | AID 2563, 2010 | calls only;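 active = fall in fluorescence gain of 50% or more versus controls, with final raw signal at or below 3038400; inconclusive = same 50% fall but final raw signal above 3038400; inactive = fall in fluorescence gain under 50%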;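 note: plate controls were neutral control wells for no effect and wells lacking membranes for full effect; tested at 10 µM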
Target sequence (Q03530 whole entry, looked up): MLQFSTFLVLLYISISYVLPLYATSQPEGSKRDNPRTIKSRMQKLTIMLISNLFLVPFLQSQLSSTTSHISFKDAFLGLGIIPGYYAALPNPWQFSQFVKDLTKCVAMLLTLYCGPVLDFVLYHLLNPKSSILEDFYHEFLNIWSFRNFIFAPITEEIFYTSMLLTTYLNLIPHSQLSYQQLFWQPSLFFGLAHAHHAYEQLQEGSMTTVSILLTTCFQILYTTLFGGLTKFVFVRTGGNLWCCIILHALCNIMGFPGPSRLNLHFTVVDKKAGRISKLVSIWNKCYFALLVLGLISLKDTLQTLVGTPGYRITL
MT1-MMP act inh – blockers of MT1-MMP proenzyme processing, primary screen, HT1080 RFP-PRO-GFP cells, GFP/RFP fluorescence | GFP/RFP ratio change, % at 20 µM | GFP/RFP ratio fluorescence, overnight; percent of plate control window, DMSO zero | 360,000 tested, 0.061% active | Matrix metalloproteinase-14 (Homo sapiens), P50281 | AID 651647, 2012;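 active = GFP/RFP ratio change of at least 30% with cell ATP level not reduced by more than half and red fluorescence within 50% of control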; note: strong numbers were not always called active
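Read-out: GFP/RFP fluorescence ratio; Test system: RFP-PRO-GFP reporter HT1080 cells; Compound dosing: single-point 20 µM compound, 1% DMSO; Times: overnight compound exposure at 37 °C.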
CSC inhib – cancer stem cell viability inhibitors, primary screen, luminescence. cancer stem cell-like cells viability. inhibition, % at 7.5 µM. 300,000 tested, 1.1% active. AID 2717, 2010;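 active = mean at 75% or more and at least half the replicates too; inconclusive = mean and replicates disagree; tested in HMLE shEcad cells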;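 note: 0% = median of negative and 100% = median of positive control wells; the first replicate is given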
PABP polyA inh – PABP poly(A) RNA binding inhibitors, primary screen, biochemical, fluorescence polarization, uHTS; inhibition, % at 35 µM; 290,000 tested, 1% active; AID 2014, 2009;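 active = 50% or more with normal probe brightness, or confirmed in later tests; inconclusive = above 50% with abnormal brightness, or retests that disagree; inactive = below 50% or failed in later tests; about a fifth of its hits are not listed in these tables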;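 note: calls also rest on retests at 20 µM and on dose response follow-up; controls were probe without protein and protein plus probe with vehicle; some compounds called inactive have numbers as strong as hits; many hits fall short of the cut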
Target sequence (P11940 whole entry, looked up): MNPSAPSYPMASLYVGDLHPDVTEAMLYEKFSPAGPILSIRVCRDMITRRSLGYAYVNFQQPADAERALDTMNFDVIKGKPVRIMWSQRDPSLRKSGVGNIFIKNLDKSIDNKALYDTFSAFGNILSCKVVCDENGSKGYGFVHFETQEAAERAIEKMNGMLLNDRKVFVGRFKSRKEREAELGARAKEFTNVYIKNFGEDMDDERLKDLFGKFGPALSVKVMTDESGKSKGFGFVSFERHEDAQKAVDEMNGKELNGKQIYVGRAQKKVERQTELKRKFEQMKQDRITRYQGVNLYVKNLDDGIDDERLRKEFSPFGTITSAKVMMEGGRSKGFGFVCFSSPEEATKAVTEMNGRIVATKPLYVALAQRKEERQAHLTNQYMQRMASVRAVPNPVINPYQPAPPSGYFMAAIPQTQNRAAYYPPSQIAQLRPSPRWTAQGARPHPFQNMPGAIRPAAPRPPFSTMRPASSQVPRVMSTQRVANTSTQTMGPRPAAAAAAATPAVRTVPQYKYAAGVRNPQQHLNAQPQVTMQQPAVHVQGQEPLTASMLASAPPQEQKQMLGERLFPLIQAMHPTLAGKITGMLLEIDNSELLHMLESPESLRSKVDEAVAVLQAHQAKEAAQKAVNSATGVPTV
Env fusion inh – inhibitors of HIV-1 Env-driven cell-cell fusion, primary screen, HeLa-JRFL effector, CEM21 target cells, luciferase. inhibition, % at 12.3 µM. 360,000 tested, 1.1% active. AID 651610, 2012;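 active = mean replicate inhibition score of at least 50 and every replicate individually at or above 50; inconclusive = only one of the two criteria met; inactive = mean below 50 and not all replicates reaching 50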;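 note: 0% = plate neutral controls and 100% = maraviroc near 300 nM; one replicate is shown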
MT1-MMP act inh RFP – also measured in MT1-MMP act inh; calls as there; RFP signal change, %; measured here: RFP expression control read;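 0 = vehicle wells; hits needed this value within 50% of zero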
* = called active by the depositor; i = inactive; u = inconclusive; x = not tested or not shown. Not all compounds are listed, so the mix of outcomes need not match the whole.

SMILES	eIF4H inh	Yeast UUG start	Rce1 inhib	MT1-MMP act inh	MT1-MMP act inh RFP	CSC inhib	PABP polyA inh	Env fusion inh
CCO[C@@H]1OC(C(=O)N2CCN(Cc3ccc4c(c3)OCO4)CC2)=C[C@H](c2coc3ccccc3c2=O)[C@H]1CCCO	-5	-18	i	3	1	-10	2	26
Cn1c(CCNC(=O)c2ccco2)nc2cc(NC(=O)c3ccccc3)ccc21	-7	-13	i	0	-3	-14	-7	-17
COc1ccc(CCNS(=O)(=O)c2ccc3c(c2)NC(=O)CS3)cc1OC	-8	-12	i	-2	2	-4	5	-7
CCCCOc1ccc(C(=O)NCC(=O)N2CCN(Cc3ccc4c(c3)OCO4)CC2)cc1	x	-5	i	7	2	15	x	13
COc1cccc(CN2CCC(n3nccc3NC(=O)CCCc3ccccc3)CC2)c1O	-7	-6	i	2	0	-9	-6	8
O=C1Nc2ccc(S(=O)(=O)NCC3CCCO3)c3cccc1c23 (stereo unspecified)	-12	x	i	0	3	-2	6	6
CC(C)C(=O)Nc1ccc(S(=O)(=O)Nc2ccccn2)cc1	-12	x	i	0	3	3	7	23
NC1(C#Cc2ccc3oc(=O)c(-n4cc(C5(O)CCCCC5)nn4)cc3c2)CCCCC1	x	35	x	1	5	x	x	-1
CC(C)Cn1c(N)c(C(=O)COC(=O)c2ccc(O)cc2O)c(=O)n(C)c1=O	x	10	i	11	-11	30	x	-3
Cc1ccsc1C(C(=O)NC1CCCCC1)N(C(=O)Cc1cccs1)C1CC1 (stereo unspecified)	-6	-19	i	-9	5	25	-4	u
O=C(C1CCN(S(=O)(=O)c2ccccc2)CC1)N1CCN(Cc2ccccc2)CC1	12	-8	i	1	-2	-15	0	x
Cc1ccc(-c2nn(-c3ccccc3)cc2C=O)o1	-2	-17	i	-9	-9	0	0	-107
COc1ccc(-c2csc(NC(=O)c3c(OC)cccc3OC)n2)cc1	-9	-12	i	-3	-5	3	3	2
Cc1ccc(COc2ccsc2C(=O)NN)cc1	0	x	i	-2	-4	0	3	11
COc1cc(OC)c(OC)cc1/C=N/NC(=O)C[n+]1ccccc1	-4	x	i	0	1	-37	-7	-17
Fc1ccc(C(c2nnnn2Cc2cccs2)N2CCN(C3CCCCC3)CC2)cc1 (stereo unspecified)	-8	-9	i	6	-3	x	5	-43
COc1ccc(-c2nc(N)n[nH]2)cc1	2	-1	i	0	-2	-7	-10	x
Oc1c(N=Nc2ccccc2)sc2ccccc12	25	x	i	-6	9	2	-13	-136
Cc1ccc(OCC(=O)NS(=O)(=O)c2ccc(Cl)cc2)cc1	-12	-8	i	1	4	-10	-5	45
Cc1c(-c2nnc(-c3ccc(C(F)(F)F)cc3)o2)cnn1-c1ccccc1	-3	x	i	6	-5	-11	6	x
COc1ccc(CNC(=O)c2c(-c3cc(Cl)c(OC)c(Cl)c3)noc2C)cc1	-13	-16	i	-2	5	-9	-5	42
CC(C)c1ccccc1NC(=O)Nc1nc(C(N)Cc2ccc(C(F)(F)F)cc2)cs1 (stereo unspecified)	x	-16	x	2	-2	x	x	-13
Cc1cccc(C)c1-n1nnnc1C(c1cc2ccccc2o1)N1CCN(C/C=C/c2ccccc2)CC1 (stereo unspecified)	x	-3	x	-7	-25	x	x	18
O=C(N/N=C/c1ccc2ccccc2c1)c1ccc(COc2ccc3c(c2)CCC3)o1	-18	-19	i	6	7	3	-26	x
N#CCCN(C(=O)c1ccco1)c1ccccc1	-14	-19	i	-1	1	-5	2	x
CSCCC(NC(=O)c1cccc([N+](=O)[O-])c1)C(=O)OCC(=O)N1CCCC1=O (stereo unspecified)	x	-28	i	4	5	-1	x	-6
COc1ccc(C2CC(c3ccc(C)cc3)Nc3nc(N)nn32)cc1 (stereo unspecified)	4	-9	i	1	-1	-12	8	-31
Cc1cn(-c2ccc(Br)cc2)[nH]c1=O	-3	x	i	1	1	0	3	x
CCCCCCCCOC(=O)CCn1[nH]c(=O)c2ccccc2c1=O	-5	-21	i	-5	-6	-5	-9	-11
COc1ccc(N(CC(=O)N/N=C(\C)c2cccs2)S(=O)(=O)c2ccccc2)cc1Cl	-8	x	i	x	x	x	2	-32
Cc1cc(C(F)(F)F)nn1-c1nc(-c2ccco2)cc(C(F)(F)F)n1	-5	-8	i	0	0	x	-8	2
CSc1ccccc1NC(=O)COC(=O)c1ccccc1O	4	-2	i	-2	1	-9	5	1
CCOc1cc(C2C(C(=O)N3CCCCC3)=C(C)NC3=C2C(=O)CCC3)cc(Br)c1O (stereo unspecified)	-1	4	i	-6	-1	-14	-1	3
CCOc1ccccc1NC(=O)CN(C)S(=O)(=O)c1cccc2nsnc12	-2	-3	x	3	3	-9	25	-35
COc1ccccc1C(=O)Nc1cccc(NC(=O)c2ccccc2OC)n1	-1	-18	i	2	-2	x	22	14
CCn1nnnc1SCC(=O)c1ccc2c(c1)OCCO2	-6	x	i	0	6	-4	0	x
COc1ccc(/C(N)=N/OC(=O)C2CCCCC2)cc1OC	-4	-8	i	3	1	-20	-3	-71
CC(C)(CNC(=O)CCNC(=O)c1ccc(Br)cc1)N1CCOCC1	x	-10	i	-2	4	-1	x	x
O=C(N/N=C\c1ccc2c(c1)OCO2)c1ccco1	-10	x	i	1	1	13	2	x
CC1CC(=O)Nc2ccccc2N1C(=O)CN1CCN(c2ccccc2)CC1 (stereo unspecified)	1	x	i	0	3	1	3	8
CC(C)C[C@@H](CO)N(Cc1ccccc1)S(=O)(=O)N(Cc1ccccc1)[C@H](CO)CC(C)C	x	0	x	-12	-13	125*	x	x
COc1ccc(NC(=O)Cn2c(=O)n(-c3ccc(CC(=O)NCc4ccco4)cc3)c(=O)c3ccccc32)cc1	3	-10	i	-1	1	-13	38	-18
COC(=O)[C@H](CCSC)NC(=O)NCCc1ccc(F)cc1	2	-12	i	x	x	-5	1	-64
O=C(COc1ccc(/C=N/NC(=O)C(=O)N2CCCCC2)cc1)Nc1ccccc1Cl	-6	x	i	12	1	10	-6	4
CCc1ccc(NC(=O)c2cc(C(C)C)on2)cc1	8	-36	i	4	0	3	14	-228
NC(=O)c1ccc(NC(=O)c2ccccc2S(=O)(=O)c2ccccc2[N+](=O)[O-])cc1	1	x	i	4	4	-12	0	-1
CCCN1CCC(=O)NC1=S	x	2	x	-3	6	x	x	-15
O=C(NCc1ccccc1)c1ccc(CN2CCOCC2)cc1	1	-20	i	3	1	-3	-4	x
O=C(NNc1ccccc1)C(=O)NNS(=O)(=O)c1ccc([N+](=O)[O-])cc1	7	x	i	0	-3	92*	-3	-32
CC[C@@]1(C(=O)OC)N[C@H](CN(C)C(=O)Nc2ccc(C(F)(F)F)cc2)[C@@H]2C(=O)N(C)C(=O)[C@@H]21	x	8	x	2	5	x	x	-103

Additional entries
SMILES	eIF4H inh	Yeast UUG start	Rce1 inhib	MT1-MMP act inh	MT1-MMP act inh RFP	CSC inhib	PABP polyA inh	Env fusion inh
COc1cc(C(=O)COC(=O)c2cnc(C)cn2)ccc1OC(F)F	-6	-9	i	-10	2	-3	-8	-27
COC(=O)c1ccc2c(=O)n(Cc3ccco3)c(SCC(=O)Nc3ccccc3Cl)nc2c1	-6	-12	i	3	2	1	4	-21
Cc1cc(Br)ccc1SCC(=O)OCC(=O)NCc1ccc2c(c1)OCO2	8	8	i	1	4	-8	0	12
CCn1cc2nc(SCC(=O)Nc3ccc(OC)cc3OC)n(Cc3ccc(OC)cc3)c(=O)c2n1	-4	-6	i	-12	-16	54	-4	13
Cc1ccc(NC(=O)CN(C)S(=O)(=O)c2ccc(Br)s2)cc1F	2	x	i	4	-4	23	6	x
CCOC(=O)Nc1ccc2c(COC(=O)CNS(=O)(=O)c3ccc(NC(C)=O)cc3)cc(=O)oc2c1	5	-20	i	4	5	19	6	-20
CNC(=O)c1c(NC(=O)CS(=O)(=O)c2ccc(F)cc2)sc(C)c1C	x	x	i	2	-5	10	x	-1
CS(=O)(=O)c1ccc(Nc2nc(C(N)c3ccccc3Cl)cs2)cc1 (stereo unspecified)	x	-4	x	-5	-2	x	x	-6
CCN1C(=O)C2CCCCN2c2ccc(C(=O)NCCOC)cc21 (stereo unspecified)	1	12	i	5	7	-18	13	-36
COC(=O)c1ccc(OCC(O)CNCC(c2ccc(OC)cc2)N(C)C)c(OC)c1 (stereo unspecified)	3	-17	i	1	5	-4	7	-8
CN(C)c1nc(Cl)nc2c1nc(Cl)n2C1CCCCO1 (stereo unspecified)	x	10	x	1	0	x	x	-8
CCCc1cc(=O)n2[nH]c(Cc3ccccc3)nc2n1	-7	-9	i	3	2	-15	10	x
COc1ccc(N(CC(=O)Nc2ccc3c(c2)OCCO3)S(=O)(=O)c2c(C)noc2C)cc1	-13	2	i	6	0	0	0	-5
COCc1cc(C)nc(OC)c1C(N)=O	-4	x	i	-5	-3	1	1	4
O=C(c1cn(-c2ccccc2)nc1-c1cc2ccccc2oc1=O)N1CCOCC1	0	15	i	-2	-2	-1	-3	-24
CC(c1ccc(F)cc1)n1cc(C(=O)NCc2ccccn2)nn1 (stereo unspecified)	9	x	i	-2	-2	-10	7	15
COc1ccc(O/C(=N\S(=O)(=O)c2ccccc2)c2ccccc2)cc1	1	x	i	2	2	-8	-4	x
CCOc1ccccc1NC(=O)c1ccc(F)c(S(=O)(=O)N2CCC3(CC2)OCCO3)c1	0	-2	i	0	0	-4	-2	4
O=C(CSc1nccn1-c1ncc(C(F)(F)F)cc1Cl)c1ccc(Cl)cc1	12	-15	i	2	4	x	7	x
Cc1cc2cc3c(cc2nc1SCC(=O)N1c2ccccc2CC1C)OCO3 (stereo unspecified)	-9	-6	i	-6	-9	24	-1	x
COc1ccc(OC)c(NC(=O)CN(c2ccc(OC)c(Cl)c2)S(C)(=O)=O)c1	-5	-28	x	7	3	x	-6	x
O=C(NCCc1csc(-c2cccnc2)n1)c1c(F)cccc1F	22	-8	i	-3	0	-7	-14	-1
Cc1noc(NS(=O)(=O)c2ccc(NC(=O)C34CC5CC(C3)CC(n3cnc(Cl)n3)(C5)C4)cc2)c1C	-8	x	i	2	6	-2	-7	-63
O=C(/C=N/O)NCCCn1ccnc1	-6	1	i	-5	-3	-2	7	x
O=C(NCCCN1CCOCC1)c1cc(S(=O)(=O)N2CCOCC2)c(Cl)cc1Cl	x	-13	x	2	1	1	x	-13
N#C/C(=C(/O)CCl)c1nnc2n1CCCCC2	-3	-13	i	-2	3	-7	-10	7
Cc1cccc(C)c1N1CCN(C(=O)N2CCOCC2)CC1	-11	x	i	3	5	-10	-7	10
Cc1ccc(C)c(NC(=O)CCC(=O)N/N=C/c2cc([N+](=O)[O-])ccc2O)c1	14	-12	i	-1	-3	-1	0	-1
CSCCC(NS(=O)(=O)c1ccc2c(c1)OCCO2)C(=O)NCCc1ccccn1 (stereo unspecified)	0	-13	i	-1	-7	21	2	x
Cn1c(=O)n(C)c2cc([N+](=O)[O-])c(N3CCN(C(=O)c4ccc(F)cc4)CC3)cc21	-4	x	i	6	-17	8	8	10
COC(=O)C(Cc1ccccc1)NC(=O)C12CC3CC(CC(C3)C1)C2 (stereo unspecified)	4	x	i	-1	-2	0	1	14
